Cruzain inh noDet – blocks cruzain activity in detergent-free assay; P25779; purified cruzain, Z-FR-AMC fluorescence, no detergent; Potency, µM, for inactives: max response, negative = inhibition, actives largely listed as inhibitors; 200,000 tested, 2.3% active;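 also: plate controls were enzyme without inhibitor for no effect and buffer without enzyme for full effect; nearly all actives have a fitted effect of over 40% in size; top concentration of the series not given in the record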
Target sequence (P25779 123-467 limits assumed): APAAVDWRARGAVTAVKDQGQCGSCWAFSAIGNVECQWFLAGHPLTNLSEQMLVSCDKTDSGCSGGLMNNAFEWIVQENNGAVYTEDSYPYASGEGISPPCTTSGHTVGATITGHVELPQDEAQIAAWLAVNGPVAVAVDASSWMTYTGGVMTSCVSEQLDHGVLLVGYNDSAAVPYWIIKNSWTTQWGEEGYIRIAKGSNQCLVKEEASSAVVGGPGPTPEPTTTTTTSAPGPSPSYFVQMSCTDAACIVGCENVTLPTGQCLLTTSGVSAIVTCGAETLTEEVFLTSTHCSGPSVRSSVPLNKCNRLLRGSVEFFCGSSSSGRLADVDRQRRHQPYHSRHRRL
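Detergent-free condition (0.00005% Triton X-100) in acetate buffer pH 5.5 with DTT. 1.5 nM enzyme and compound were pre-mixed 15 min, then 2 uM Z-FR-AMC substrate added; reaction progress from fluorescence change between first and third reads (60 s).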
NS1 inh – inhibitors of influenza NS1 protein function; 270,000 tested, 0.4% active; S. cerevisiae slowed by influenza A NS1, growth recovery by OD600; Potency, µM (doses to about 46.1 µM), for inactives: at the highest dose activity, positive = more growth; active means well fitted rising curve with a large enough effect; inconclusive means small, poorly fitted or top-dose-only effect; inactive means no such curve, though single readings can be large or run the other way; also: nearly all actives have a fitted effect of over 50% in size
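Compounds were scored for reversing the slow growth caused by influenza A NS1 in S. cerevisiae, measured by optical density at 600 nm. Assay medium contained 2% galactose at pH 6.0; NS1-free yeast of the same strain were the positive control.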
Lassa entry inh – Lassa virus entry inhibition; Lassa virus pseudotype entry inhibition, cell reporter; control for the full effect not named in the record; Potency, µM (titrated, usually from 37.9 µM), for the others: top-dose activity change, negative = inhibition, usual class: inhibitors; 300,000 tested, 1.2% active; active means well fitted inhibition curve with a large enough effect; inconclusive means small, poorly fitted or top-dose-only effect, or effect the other way; inactive means flat fitted curve, though single readings scatter; tested in HEK293 cells; also: % is scaled to controls: 0 for no effect and ±100 for the full control effect; nearly all actives have a fitted effect of over 50% in size; luciferase read-out
SARS PLP yeast – blocks SARS-CoV papain-like protease in a yeast assay. S. cerevisiae expressing SARS-CoV PLpro, growth rescue; control for the full effect not named in the record. Potency, µM (top dose mostly 32.9 µM), for inactives: at the highest dose activity, positive = growth rescue. 330,000 tested, 0.19% active. AID 485353; active means well fitted rising curve with a large enough effect; inconclusive means small, poorly fitted or top-dose-only effect; inactive means no such curve, though single readings can be large or run the other way; also: 0% is about no effect; nearly all actives have a fitted effect of over 55% in size; growth read by luminescence after 48 h
2A StopGo – lowers the luciferase signal of an FMDV 2A StopGo reporter. Potency, µM (highest dose often 57.9 µM), without a hit: at the top dose signal change, negative = less light. 410,000 tested, 1.2% active. human cells with a luciferase reporter of 2A StopGo recoding; control for the full effect not named in the record. AID 1159524; active = well fitted falling curve with a large enough effect; inconclusive = small, poorly fitted or top-dose-only effect; inactive = no such curve, though single readings can be large or run the other way; tested in HEK293T cells; also: % is scaled to controls: 0 for no effect and ±100 for the full control effect; nearly all actives have a fitted effect of over 45% in size; luciferase light after 4 h
Cruzain inh Det – cruzain (T. cruzi) inhibition with detergent; P25779; purified cruzain, Z-FR-AMC fluorescence, 0.01% Triton; Potency, µM, for inactives: max response, negative = inhibition, actives largely listed as inhibitors; 200,000 tested, 0.43% active; AID 1478;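 also: plate controls were neutral wells for no effect and buffer without enzyme for full effect; nearly all actives have a fitted effect of over 40% in size; top concentration of the series not given in the record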
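Steps: dispense cruzain (1.5 nM final) in acetate buffer pH 5.5 with DTT and 0.01% Triton X-100; pin-transfer compounds; incubate 15 min RT; add Z-FR-AMC (2 uM final); read fluorescence every 30 s, using the 60 s intensity change.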
Marburg entry inh – blocks Marburg virus binding to or entry into cells. Marburg virus pseudotyped entry inhibition, cell reporter; control for the full effect not named in the record; about a third of the inactives were read at about 46 µM. Potency, µM (top dose mostly 37.8 µM), for the others: top-dose activity change, negative = inhibition, actives largely listed as inhibitors. 300,000 tested, 1.8% active; active = well fitted inhibition curve with a large enough effect; inconclusive = small, poorly fitted or top-dose-only effect, or effect the other way; inactive = flat fitted curve, though single readings scatter; tested in HEK293 cells; about a fifth of its hits are not listed in these tables; also: % is scaled to controls: 0 for no effect and ±100 for the full control effect; luciferase read-out
RE007 growth inh – less growth of the S. pombe RE007 Vpr strain. Potency, µM (titrated, usually from 92.2 µM), for the others: at the highest dose activity change, negative = less growth. 360,000 tested, 0.21% active. S. pombe RE007 Vpr strain, BacTiter-Glo ATP luminescence, 24 h; control for the full effect not named in the record; active = well fitted falling curve with a large enough effect; inconclusive = small, poorly fitted or top-dose-only effect; inactive = no such curve, though single readings can be large or run the other way;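 also: % is scaled to controls: 0 for no effect and ±100 for the full control effect; nearly all actives have a fitted effect of over 50% in size; the assay follows cell death caused by Vpr and the record does not say whether a fall means rescue or toxicity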
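Fission yeast strain RE007, carrying one chromosomally integrated HIV-1 vpr copy, was seeded at OD 0.01 in PMG+AL medium with 23 nL pinned compound. After 24 h at 30 °C and 99% humidity, viability was read by BacTiter-Glo luminescence.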
* marks the source's active call; other numbers are inactive results; ? = inconclusive; . = not tested or not shown; & = joins results of further samples; [ ] = dose if it differs, or a comment. Unless noted, calls follow the shape of the dose curve; as a rule, active = well fitted curve in the direction sought with a large enough effect; inconclusive = small, poorly fitted or top-dose-only effect, or another doubt; inactive = no such curve, though single readings can be large; an effect the other way counts as inactive or inconclusive. Potency is read from the fitted curve at half-maximal effect. Not a hit list; 4.6% or so of the library scored in one or more.

item	Molecule	RE007 growth inh	Marburg entry inh	Cruzain inh noDet	2A StopGo
1	O=C(NCCCn1ccnc1)c1nn2c(C(F)(F)F)cc(-c3ccc(Br)cc3)nc2c1Cl	-7%	?	-11%	35µM*
2	Cc1ccc(NC2CNC(=O)NC2=O)cc1C (stereo not given)	-10%	6%[46.1 µM]	.	0%
3	CCCc1cc(=O)oc2cc(C)cc(OCC(=O)NCc3ccncc3)c12	0%	.	.	3%
4	CC(C)OCCCNC(=O)c1c(N)n(Cc2cccs2)c2nc3ccccc3nc12	-18%	?	?	-29%
5	COc1ccc2c(c1)OC13CCCCC1C2C(C(=O)c1ccccc1)C(=O)N3 (stereo not given)	5%	.	?	-4%
6	CC1=CC(=C2C(=O)c3ccccc3C2=O)C=C(C)N1C	5%	?	-3%	24%
7	O=C(O)Cc1ccc(NS(=O)(=O)c2ccccc2Cl)cc1	5%	4%[46.1 µM]	.	-5%
8	CCn1c(SCC(=O)Nc2ccc3c(c2)OCO3)nc2ccccc21	-14%	-13%	-5%	0%
9	CCOC(=O)c1nnn(-c2nc(N(C)C)nc(N(C)C)n2)c1C	7%	5%[46.1 µM]	.	-4%
10	N#Cc1ccccc1NC(=O)C1CC(=O)N(c2ccc3c4c(cccc24)CC3)C1 (stereo not given)	-8%	?	22%	9%
11	O=C(Nc1ccc2c(c1)OCO2)C(=O)c1c[nH]c2ccccc12	-2%	.	.	39%[activator]
12	CC(C)(C)NC(=O)N1CCn2cccc2C1c1ccccc1F (stereo not given)	1%	?	.	-9%
13	CCOc1ccc(C(=O)Nc2cccc(C(C)=O)c2)cc1[N+](=O)[O-]	9%	-22%[46.1 µM]	.	-5%
14	S=c1[nH]nc(-c2cccc(Cl)c2)n1/N=C/c1ccco1	35%	?	.	-10%
15	COc1ccc(C2/C(=C(/O)c3ccccc3)C(=O)C(=O)N2CCO)cc1 (stereo not given)	15%	2%	-5%	12%

item	Cruzain inh Det	Lassa entry inh	NS1 inh	SARS PLP yeast
1	-12%	-7%	?	-14%
2	.	14%[46.1 µM]	.	.
3	.	.	-1%	-4%
4	-12%	?	-76%	-2%
5	6.0%	.	-1%	-2%
6	-14%	?	0%	2%
7	.	-8%	.	-1%
8	-7.4%	3%	-14%	2%
9	.	20%	.	1%
10	-4.8%	?	-6%	4%
11	.	.	-14%	0%
12	.	4%[46.1 µM]	.	-1%
13	.	-1%[46.1 µM]	-2%	0%
14	.	0%	10%	1%
15	1.0%	12%	16%	4%

Compound profiles, from the list above.
O=C(Nc1ccc2c(c1)OCO2)C(=O)c1c[nH]c2ccccc12 in the list: RE007 growth inh = -2%; Marburg entry inh = .; Cruzain inh noDet = .; 2A StopGo = 39%[activator]; Cruzain inh Det = .; Lassa entry inh = .; NS1 inh = -14%; SARS PLP yeast = 0%
CC1=CC(=C2C(=O)c3ccccc3C2=O)C=C(C)N1C in the list: RE007 growth inh = 5%; Marburg entry inh = ?; Cruzain inh noDet = -3%; 2A StopGo = 24%; Cruzain inh Det = -14%; Lassa entry inh = ?; NS1 inh = 0%; SARS PLP yeast = 2%

The list continues.
item	Molecule	RE007 growth inh	Marburg entry inh	Cruzain inh noDet	2A StopGo
16	Cc1noc(NS(=O)(=O)c2ccc(NC(=O)c3ccoc3C)cc2)c1C	4%	-2%	-20%	18%
17	O=C(c1cc2ccccc2oc1=O)N1CCC2(CC1)OCCO2	-16%	10%	-16%	3%
18	CCN(CC)CCn1c2ccccc2c2nc3ccc([N+](=O)[O-])cc3cc21	-25%	?	.	7%
19	CC(=O)N1CCN(C(=O)COC(=O)CNC(=O)c2ccccc2C)CC1	-5%	3%	.	-8%
20	Cc1cc(NC(=O)CSc2nnc(CNc3ccc(F)cc3)n2C2CCCCC2)no1	5%	-33%	-3%	-21%
21	Cc1cc(C(=O)O)ccc1-c1ccc(/C=N/n2cnnc2)o1	16%	.	.	-2%
22	CSc1ccccc1OCc1cc(C(=O)N2CCCC2c2nonc2C)no1 (stereo not given)	-7%	-15%[46.1 µM]	.	17%
23	O=C(CN1C(=O)c2cccc3cccc1c23)Nc1cccc(F)c1	.	?	-4%	2%
24	CCOc1ccc(OCC)c(NC(=O)CSc2nc3cccnc3n2C)c1	1%	-21%	?	18µM*
25	COc1ccc(OC)c(N(CC(=O)O)S(=O)(=O)c2ccc(OC)c(OC)c2)c1	-4%	0%	1%	.
26	Cc1ccc(N=Nc2c(O)c3ccccc3[nH]c2=O)c(S(=O)(=O)N(C)C)c1	.	-10%	-2%	.
27	CCOC(=O)c1sc(NC(=S)NC(=O)c2ccccc2Cl)c(C(=O)OCC)c1C	-16%	0%	?	-18%
28	Cc1ccccc1-c1nnc(SCC(=O)Nc2ccc3c(c2)OCCO3)n1N	-1%	26%	1%	-3%
29	CCC(=O)Nc1c(C#N)c2nc3ccccc3nc2n1-c1ccccc1C	0%	1%	11%	-8%
30	O=C(NCCN1C(=O)C2C3C=CC(C3)C2C1=O)Nc1ccc(Br)cc1 (stereo not given)	-4%	.	6%	56%[activator]

item	Cruzain inh Det	Lassa entry inh	NS1 inh	SARS PLP yeast
16	-4.3%	-2%	-42%	1%
17	1.0%	16%	4%	1%
18	.	?	-2%	-1%
19	.	-8%	.	-1%
20	0.8%	-28%	5%	-13%
21	.	.	6%	1%
22	.	-1%[46.1 µM]	-18%	1%
23	-0.1%	?	.	.
24	-4.1%	-28%	-16%	-2%
25	1.7%	1%	0%	1%
26	2.3%	.	-3%&4%	-1%
27	2.9%	?	2%	0%
28	0.9%	1%	6%	-3%
29	-4.3%	4%	-4%	-8%
30	-4.1%	.	-5%	3%

The listing continues.
item	Molecule	RE007 growth inh	Marburg entry inh	Cruzain inh noDet	2A StopGo
31	CCn1c(SCC(N)=O)nc2c1c(=O)n(C)c(=O)n2C	17%	0%	0%	9%
32	O=C(OCn1ncc(Br)c(Br)c1=O)c1ccccc1Cl	6.3µM*	10µM*	-16%	14µM*
33	O=C(COC(=O)c1cn(-c2ccccc2)nc1-c1cccs1)NC1CC1	0%	-4%	14%	?
34	O=C(c1c(F)cccc1F)N1CCC(O)(c2ccc(F)cc2)CC1	2%	.	.	4%
35	O=C(NCc1ccccc1)C1CCN(S(=O)(=O)c2ccc3c(c2)CCCN3C(=O)C2CCC2)CC1	.	.	1%	-24%
36	CCN(C(=O)COc1ncnc2sccc12)c1ccccc1	7%	-1%[46.1 µM]	.	14%
37	Cc1nnc(SCc2c(Cl)cccc2Cl)s1	-13%	19%[46.1 µM]	5%	5%
38	COc1ccc(N2C(=O)CSC2c2cccc(F)c2)c(OC)c1 (stereo not given)	-9%	0%	2%	-7%
39	O=C(Nc1ccc(Cl)c(Cl)c1)N1CCC(c2ccccc2)C1 (stereo not given)	.	.	4%	13%
40	CCCc1nnc(SCC(=O)N2CCOCC2)n1C	6%	-6%	1%	14%
41	COc1cc2cc(Oc3ccc4ccc(=O)oc4c3)c(=O)oc2cc1OC1OC(COC(=O)CC(C)(O)CC(=O)O)C(O)C(O)C1O (stereo not given)	0%	38%&38%	-5%	-12%
42	O=C1OCCC1N1C(=O)c2ccccc2S1(=O)=O (stereo not given)	16%	2%	18%	-2%
43	CCOc1cccc(C(=O)Nc2cccc(C(=O)NCC(C)C)c2)c1	18%	0%	8%	-26%
44	Cc1ccc(OCC(=O)N2CCN(C(=O)c3cccc(F)c3)CC2)cc1	1%	21%[46.1 µM]	.	-14%
45	COc1ccc(OC)c(N(CC(=O)Nc2cccnc2)S(=O)(=O)c2ccccc2)c1	9%	-3%	12%	20%

item	Cruzain inh Det	Lassa entry inh	NS1 inh	SARS PLP yeast
31	2.1%	1%	1%	0%
32	-20%	11µM*	-217%	-29%
33	-2.2%	-13%	-7%	5%
34	.	.	3%	0%
35	-2.6%	?	.	.
36	.	12%	.	1%
37	0.1%	3%	0%	9%
38	0.8%	-1%	-4%	0%
39	-5.8%	?	.	.
40	-2.2%	-2%	8%	14%
41	-9.6%	-3%	?	-9%
42	6.2%	-8%	4%	-1%
43	-1.6%	?	-9%	-2%
44	.	0%[46.1 µM]	4%	0%
45	2.7%	1%	-8%	1%

Molecules from the list above that contain a thiophene ring, fused or not, in the order listed:
item	Molecule	RE007 growth inh	Marburg entry inh	Cruzain inh noDet	2A StopGo
4	CC(C)OCCCNC(=O)c1c(N)n(Cc2cccs2)c2nc3ccccc3nc12	-18%	?	?	-29%
27	CCOC(=O)c1sc(NC(=S)NC(=O)c2ccccc2Cl)c(C(=O)OCC)c1C	-16%	0%	?	-18%
33	O=C(COC(=O)c1cn(-c2ccccc2)nc1-c1cccs1)NC1CC1	0%	-4%	14%	?
36	CCN(C(=O)COc1ncnc2sccc12)c1ccccc1	7%	-1%[46.1 µM]	.	14%

item	Cruzain inh Det	Lassa entry inh	NS1 inh	SARS PLP yeast
4	-12%	?	-76%	-2%
27	2.9%	?	2%	0%
33	-2.2%	-13%	-7%	5%
36	.	12%	.	1%

Continuation:
item	Molecule	RE007 growth inh	Marburg entry inh	Cruzain inh noDet	2A StopGo
46	O=C(NC(=O)c1cccc(F)c1)OC[C@@H]1CCCN2CCCC[C@H]12	-6%	-1%	0%	-21%
47	Cc1ccc(-c2cn3c(n2)SCC3)cc1	6%	?	.	27%
48	CCOc1ccc(NS(=O)(=O)c2cc(C(=O)N3CC(C)OC(C)C3)ccc2C)cc1 (stereo not given)	-3%	-10%	.	18%
49	CCOCCn1c(=O)c2c(nc3n2CCN3c2ccc(C)cc2)n(C)c1=O	-15%	-2%[46.1 µM]	.	-1%
50	COc1ccc(NC(=O)CN(C)C(=O)c2ccc3c(c2)OCCO3)cc1	27%	5%	.	-7%

item	Cruzain inh Det	Lassa entry inh	NS1 inh	SARS PLP yeast
46	0.6%	4%	-5%	26%
47	.	?	.	-4%
48	.	?	.	-10%
49	.	11%	29%	.
50	.	?	.	2%
